KCNQ2 inh: KCNQ2 potassium channel inhibitors, primary screen, cell-based, CHO-K1, FluxOR thallium flux, B-score (AID 2156); 20 min; stronger effect = lower value; only compounds with negative scores are shown here; some inactives read as strong as hits; B-score at 10 µM; 310,000 tested, 1.1% active;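 active = fluorescence ratio B-score at most minus 3 library SDs, with starting brightness B-score within 2 library SDs, cut at about -5.5 in these data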
Target sequence (O88943 whole entry, looked up): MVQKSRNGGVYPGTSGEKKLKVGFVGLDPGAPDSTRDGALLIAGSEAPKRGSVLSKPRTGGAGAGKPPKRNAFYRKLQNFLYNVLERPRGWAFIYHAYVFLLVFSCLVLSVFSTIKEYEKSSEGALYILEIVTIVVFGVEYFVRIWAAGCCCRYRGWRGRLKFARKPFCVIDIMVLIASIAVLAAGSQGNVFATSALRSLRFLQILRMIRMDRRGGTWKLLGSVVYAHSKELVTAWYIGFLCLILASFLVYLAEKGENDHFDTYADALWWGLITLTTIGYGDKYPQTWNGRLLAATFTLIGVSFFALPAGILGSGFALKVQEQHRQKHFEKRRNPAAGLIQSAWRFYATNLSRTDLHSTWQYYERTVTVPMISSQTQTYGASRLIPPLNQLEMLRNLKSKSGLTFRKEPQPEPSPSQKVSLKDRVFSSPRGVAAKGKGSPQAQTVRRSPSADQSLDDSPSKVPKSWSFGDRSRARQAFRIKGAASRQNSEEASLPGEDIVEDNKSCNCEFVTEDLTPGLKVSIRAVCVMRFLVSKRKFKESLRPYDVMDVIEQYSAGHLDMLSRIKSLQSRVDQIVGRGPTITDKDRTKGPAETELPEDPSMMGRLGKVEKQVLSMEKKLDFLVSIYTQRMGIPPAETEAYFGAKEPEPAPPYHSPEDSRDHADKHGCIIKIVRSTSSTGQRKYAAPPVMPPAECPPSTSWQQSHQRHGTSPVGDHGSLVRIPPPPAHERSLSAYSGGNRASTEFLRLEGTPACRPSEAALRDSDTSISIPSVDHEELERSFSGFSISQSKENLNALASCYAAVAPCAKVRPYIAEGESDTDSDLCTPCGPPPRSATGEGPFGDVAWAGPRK
KCNQ2 inh baseline: also measured in KCNQ2 inh; calls as there; B-score; measured here: initial fluorescence intensity artifact check;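 brightness before thallium and not channel activity; 0 = typical well and far values either way flag optical interference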
* = called active by the depositor; i = inactive.

structure | KCNQ2 inh | KCNQ2 inh baseline
CCN(CC)S(=O)(=O)c1cccc(C(=O)/C=C2/N(C)c3ccccc3C2(C)C)c1 | i | -1.1
Cc1nc2cc(C(=O)OCC(=O)NC34CC5CC(CC(C5)C3)C4)ccc2n1-c1ccccc1 | i | -3.3
O=C(O)CCNC(=O)OCC1c2ccccc2-c2ccccc21 | i | 0.84
O=C(NCC12CC3CC(CC(C3)C1)C2)c1cc2n(n1)C(C(F)(F)F)CC(c1ccco1)N2 (configuration not stated) | i | -0.05
CCOC(=O)Cc1csc(NC(=O)Cc2ccc(C)cc2)n1 | i | -0.01
Nc1ccccc1SCC1CSc2nc3ccccc3c(=O)n21 (configuration not stated) | i | 1.8
O=C(Cc1cccc2ccccc12)NC(=S)Nc1cccc(C(=O)O)c1 | i | 1.5
FC(F)C(F)(F)c1cc(-c2ccccc2)n[nH]1 | i | -0.38
CCN(C(=O)c1ccc(Cl)c([N+](=O)[O-])c1)c1ccccc1 | i | -0.21
O=C(CCCCCNC(=S)Nc1ccc(Cl)cc1)C[N+](=O)[O-] | i | -0.57
c1ccc(-n2nnnc2-c2cccnc2)cc1 | i | -0.62
COc1cc(NC(=O)CNC(=O)Cn2c(C)cc3ccccc3c2=O)cc(OC)c1OC | i | -1.5
Cc1ccc(C)c(NC(=S)c2ccc3ccccc3n2)c1 | i | -0.12
O=C(O)C(Cc1ccccc1)N1C(=O)/C(=C/c2ccccc2)SC1=S (configuration not stated) | i | 2.1
CCCS(=O)(=O)N1CCN=C1SCc1cccc(C)c1 | i | -3.1

Compound profiles, from the list above. Order of values: KCNQ2 inh	KCNQ2 inh baseline
CCN(CC)S(=O)(=O)c1cccc(C(=O)/C=C2/N(C)c3ccccc3C2(C)C)c1 as listed: i	-1.1
O=C(CCCCCNC(=S)Nc1ccc(Cl)cc1)C[N+](=O)[O-] as listed: i	-0.57

The listing continues.
structure | KCNQ2 inh | KCNQ2 inh baseline
N#C/C(=C\c1cccnc1)C(=O)Nc1ccccc1[N+](=O)[O-] | i | -0.49
CC(NC(=O)c1ccccc1)C(=O)N/N=C/c1ccc(O)cc1 (configuration not stated) | i | 1.4
Cc1cccc(NC(=O)/C=C/c2ccc(Cl)cc2)n1 | i | -1
COc1ccc2[nH]cc(C(=O)CN(C)CCc3ccc(OC)c(OC)c3)c2c1 | i | -2.1
CN(C)CCN(C)Cc1ccccc1Sc1cccc2ccccc12 | i | 1.1
O=C(CCN1CCOCC1)NCc1ccccc1 | i | 0.86
COC(=O)COc1ccc(S(=O)(=O)N2CCCCC2)cc1[N+](=O)[O-] | i | 1.1
C=CCNc1nc(N2CCOCC2)c(C#N)c2c1CN(C)CC2 | i | -1.6
Cc1cccc(OCC(=O)Nc2cc(NC(=O)COc3cccc(C)c3C)cc(C(=O)O)c2)c1C | i | 2.5
CCOC(=O)c1c(C)[nH]c(C(=O)NNC(=O)c2ccc(C(C)(C)C)cc2)c1C | i | -0.85
COc1ccccc1CNC(=O)CCc1c(C)nc2cc(-c3ccccc3OC)nn2c1C | i | -2.1
COC(=O)c1ccccc1N=Nc1c(C)n[nH]c1C | i | -1.7
COC(OC)C1(C)C(C#N)=C(N)Oc2c1c(=O)oc1ccccc21 (configuration not stated) | i | -0.81
CCC(C)c1ccc2oc(-c3ccc(NC(=O)c4ncn[nH]4)cc3)nc2c1 (configuration not stated) | i | 1.1
CCN1C(=O)c2cccc3c(NC(=O)c4ccc(S(=O)(=O)N5CCOCC5)cc4)ccc1c23 | i | 0.75

Look-ups from the entries so far:
Reading for O=C(Cc1cccc2ccccc12)NC(=S)Nc1cccc(C(=O)O)c1 under KCNQ2 inh baseline: 1.5
Reading for CCN(CC)S(=O)(=O)c1cccc(C(=O)/C=C2/N(C)c3ccccc3C2(C)C)c1 under KCNQ2 inh baseline: -1.1
Reading for CC(NC(=O)c1ccccc1)C(=O)N/N=C/c1ccc(O)cc1 (configuration not stated) under KCNQ2 inh baseline: 1.4
Reading for O=C(CCCCCNC(=S)Nc1ccc(Cl)cc1)C[N+](=O)[O-] under KCNQ2 inh baseline: -0.57
Reading for CCN(C(=O)c1ccc(Cl)c([N+](=O)[O-])c1)c1ccccc1 under KCNQ2 inh baseline: -0.21

(cont.)
structure | KCNQ2 inh | KCNQ2 inh baseline
COC(=O)c1cc2c(s1)-c1cc(F)ccc1OC2 | i | -0.01
COc1ccc(OC)c2c(C)cc(NCCN3CCOCC3)nc12 | i | -0.02
CCN(C(=O)Cn1nc(C)c([N+](=O)[O-])c1C)c1c(N)n(Cc2ccccc2)c(=O)[nH]c1=O | i | 1
CCOc1cc(-c2nc3cc(C)ccn3c2NCC2CCCO2)ccc1O (configuration not stated) | -5.6* | 1.6*
O=[N+]([O-])c1ccccc1Sc1nccn1Cc1ccccc1 | -6.5* | -1.4*
Cc1occc1C(=O)N/N=C/c1ccc2c(c1)OCO2 | i | 0.83
CN1CCN(Cc2c(O)ccc3cc(Br)ccc23)CC1 | i | -1.3
COc1ccc(Br)cc1/C=C/C(=O)NC(=S)Nc1ccc(CN2CCOCC2)cc1 | -6.3* | -0.23*
COc1cccc(Oc2ccc(OC)cc2C(=O)O)c1 | i | -0.78
O=C1c2ccccc2NC(c2ccccc2)N1NS(=O)(=O)c1ccccc1 (configuration not stated) | i | -0.94
c1ccc(CCC2CCCCN2Cc2nc(-c3ccc4c(c3)OCO4)no2)nc1 (configuration not stated) | i | 0.48
CCCOc1ccc(NC(=O)CC2C(=O)N(CC)C(=S)N2CCCN2CCN(Cc3ccccc3)CC2)cc1 (configuration not stated) | i | 0.12
Cc1ccc(Oc2nc3ccccn3c(=O)c2/C=C(\C#N)C(=O)Nc2c(C)n(C)n(-c3ccccc3)c2=O)cc1 | i | -0.96
O=C(CCC(=O)N1CCN(C2CCCCC2)CC1)Nc1nnc(C(F)(F)F)s1 | i | -0.8
CCN(CC(=O)NC(C)C)C(=O)[C@H](C)NC(=O)c1ccc(Br)cc1 | i | 0.82

More structures follow:
structure | KCNQ2 inh | KCNQ2 inh baseline
CCN(c1ccc(NC(=O)c2ccc(Cl)nc2)cc1)C(C)C | i | 1.1
CCOc1ccc(OCC)c(NC(=O)CN(c2ccc(C)cc2)S(=O)(=O)c2c(C)noc2C)c1 | i | 0.86
CC(C)(C)NC(=O)c1ccccc1NC(=O)C1CC(=O)N(C2CCCCC2)C1 (configuration not stated) | i | 0.53
O=c1[nH]c(-c2ccccc2F)nc2c1sc(=S)n2Cc1ccccc1 | i | 0.02
Cc1cccc(C)c1NC(=O)Cn1nnc(-c2ccc(N3CCOCC3)cc2)n1 | i | 0.01
O=C(NCc1ccccc1)c1onc(CSc2ccc(F)cc2)c1C(=O)NCCCN1CCOCC1 | i | 1.5
CCCc1[nH]nc2c1C(c1cccc(OC(=O)c3ccco3)c1)C(C#N)=C(N)O2 (configuration not stated) | i | 1.5
Cc1ccc(NC(=O)C(=O)NCC2CCCN2S(=O)(=O)c2cccs2)c(C)c1 (configuration not stated) | i | 0.99
C/C(=N\NC(=O)c1c(C)nc2ccccn12)c1ccc(O)cc1O | i | 0.08
COc1ccccc1NC(=O)c1ccc2nc(-c3ccccc3)c(-c3ccccc3)nc2c1 | -7.1* | 0.36*
CC(C)CCn1c(=O)c2ccccc2n2c(CN(C)Cc3ccccc3)nnc12 | i | -0.96
O=C(COC(=O)/C=C/c1cccc(Cl)c1)Nc1ccc2[nH]c(=O)[nH]c2c1 | i | 1.4
O=C(CSc1n[nH]c(=O)[nH]c1=O)Nc1ccc2c(c1)C(=O)c1ccccc1C2=O | i | 0.41
CC1=N/C(=C\c2ccc([N+](=O)[O-])cc2)C(=O)N1c1cc(Cl)ccc1C | i | 0.2
Cc1ccc(-c2noc(CN(C(=O)Cc3ccccc3)C(C)C)n2)cc1 | i | 2.9

A stretch of the results above, as a working copy:
structure | KCNQ2 inh | KCNQ2 inh baseline
COc1ccccc1NC(=O)c1ccc2nc(-c3ccccc3)c(-c3ccccc3)nc2c1 | -7.1* | 0.36*
CC(C)CCn1c(=O)c2ccccc2n2c(CN(C)Cc3ccccc3)nnc12 | i | -0.96
O=C(COC(=O)/C=C/c1cccc(Cl)c1)Nc1ccc2[nH]c(=O)[nH]c2c1 | i | 1.4
O=C(CSc1n[nH]c(=O)[nH]c1=O)Nc1ccc2c(c1)C(=O)c1ccccc1C2=O | i | 0.41
CC1=N/C(=C\c2ccc([N+](=O)[O-])cc2)C(=O)N1c1cc(Cl)ccc1C | i | 0.2
Cc1ccc(-c2noc(CN(C(=O)Cc3ccccc3)C(C)C)n2)cc1 | i | 2.9

Other results.
structure | KCNQ2 inh | KCNQ2 inh baseline
O=C(c1ccccn1)c1conc1C(=O)c1ccc(Br)cc1 | i | 0.68
CC(=O)c1cnc(-c2cccc(Cl)c2)s1 | i | -0.06
CN(C)c1ccc(N2C(=NC(=O)C3CCCO3)SC3CS(=O)(=O)CC32)cc1 (configuration not stated) | i | 2.1
Cc1ccc2nc(NC(=O)CCNS(=O)(=O)c3cccs3)sc2c1 | i | 0.28
CCCSc1nnc(CSc2nc3ccccc3s2)n1-c1ccccc1 | i | 0.65
Cc1nn(C(C)(C)C)c(OC(=O)c2ccc3c(c2)OCO3)c1Sc1ccccc1 | i | 0.55
COc1ccccc1OCCC(=O)OCC(=O)Nc1ccc(Br)cc1 | i | 0.23
O=C(NNC(=O)C1CC1)Nc1ccc(Cl)cc1 | i | 0.77
COc1ccc(N/C=C/C(=C(C#N)C#N)N(C)C)cc1 | i | 1.2
C/C(=N\N=c1/sc2ccccc2n1C)c1ccccn1 | i | 1.9
COc1cccc(C(=O)N2CCN(C3CCC(c4ccccc4)CC3)CC2)c1 (configuration not stated) | i | -1.2
COc1ccc(NC(=O)c2cn(-c3ccccc3)nc2-c2ccncc2)cc1 | i | 2.7
O=C(N/N=C/c1cc([N+](=O)[O-])ccc1Cl)c1ccc2nc[nH]c2c1 | i | -2.3
CCCn1c(SCC(=O)Nc2ccc(NC(C)=O)cc2)nc2c1c(=O)n(C)c(=O)n2C | i | 0.1
Cc1ccc(C(CNS(=O)(=O)c2ccc(Br)cc2)N2CCN(C)CC2)cc1 (configuration not stated) | i | 0.08

(further entries)
structure | KCNQ2 inh | KCNQ2 inh baseline
O=C(N=C1SC2CS(=O)(=O)CC2N1c1ccccc1)C1CCCCC1 (configuration not stated) | i | 0.21
CC(=O)N1CCN(c2ccc([N+](=O)[O-])c(-n3nc(C)cc3C)c2)CC1 | i | -1.7
COc1ccc2c(c1)C(=O)CCC2c1ccccc1 (configuration not stated) | i | -0.04
O=C(CCSc1ccc(Cl)cc1)NC1CCCCC1 | i | 0.01
COc1cc(NC(=S)NC(=O)C(C)C)ccc1NC(=O)c1cc2ccccc2o1 | i | -1.4
COc1ccccc1NC(=O)c1ccccc1NS(C)(=O)=O | i | 1.2
CC(C)C(NC(=O)C1CCCCC1)C(=O)N1CCN(c2ccc(F)cc2)CC1 (configuration not stated) | i | -0.01
O=C1c2ccccc2C(Nc2ccc(Cl)cn2)N1c1cccnc1 (configuration not stated) | i | 0.05
N#C/C(=C\c1cccs1)C(=O)Nc1nccs1 | i | -0.03
CSc1nc2c(c(=O)[nH]1)C(c1ccccc1Cl)CC(=O)N2 (configuration not stated) | i | 3.1
Fc1ccccc1Nc1nc(N2CCOCC2)nc(N2CCOCC2)n1 | i | -0.66
COCCNc1nc2sc3c(c2c(=O)n1Cc1ccco1)CCCCC3 | i | -0.59
CCC(C)(C)n1nnnc1C(c1ccc(C)cc1)N1CCN(Cc2cccnc2)CC1 (configuration not stated) | i | -0.51
O=C(N/N=C/c1coc2ccccc2c1=O)c1cccc([N+](=O)[O-])c1 | i | -0.75
CCC(C)(C(=O)NC1CCCCC1)N(C(=O)c1ccccn1)c1ccccc1 (configuration not stated) | i | 0.39

Carrying on:
structure | KCNQ2 inh | KCNQ2 inh baseline
Cc1cccc(-c2nnc(NC(=O)c3ccc(N4C(=O)CCC4=O)cc3)s2)c1 | i | 0.71
CCCc1c(C)nn(C(=O)/C(C#N)=N/Nc2ccccc2[N+](=O)[O-])c1C | i | 0.06
CC(=O)Nc1ccc(S(=O)(=O)Nc2nnc(C(C)C)s2)cc1 | i | -0.06
Cc1cccc(-c2nc3c(c(SCC(=O)N(C)C)n2)CCCC3)c1 | i | 0.19
COc1cccc(CN(C)CC(=O)Nc2ccccc2C(C)C)c1 | i | -2
COc1ccccc1N1CCN(C2CCCN(C(=O)CCn3cncn3)C2)CC1 (configuration not stated) | i | -2
CCCN1CCN(CCNC(=O)Nc2ccccc2Cl)CC1 | i | 0.11
CCCn1nnc(NC(=S)NC(=O)CC)n1 | i | 0.96
COc1ccc(Cl)cc1NC(=O)CN(C)CC(=O)Nc1ccccc1N1CCOCC1 | i | -1
OC1(c2ccc(Br)cc2)CN(c2ccccc2)C2=[N+]1CCS2 (configuration not stated) | -6* | 1.7*
O=C1C(Cl)=C(NC2CCCCC2)C(=O)N1Cc1ccccc1 | i | -0.43
Cc1ccccc1CSc1nc2c(c(=O)[nH]1)CCCC2 | i | 0.82
CCCOc1ccc(C(=O)CCNc2ccc(C)c(Cl)c2)cc1 | i | -0.09
CC(=O)Nc1ccc(-n2nnnc2SCC(=O)NC2CCCC2)cc1 | i | -0.04
CC1C(=O)NN=C1C(=O)N/N=C/c1cccs1 (configuration not stated) | i | 0.63

(list continues)
structure | KCNQ2 inh | KCNQ2 inh baseline
Cc1cc(C)c(NC(=O)CS(=O)CC(=O)NCCN2CCCCCC2)c(C)c1 (configuration not stated) | i | -0.77
COC(=O)C1=C(C)N(c2cc(C)cc(C)c2)/C(=C/c2ccco2)C1=O | i | -0.21
COn1c(SCc2ccc(C)cc2C)nc2ccccc2c1=O | i | -0.18
O=C(CCN1CCN(c2ccccc2F)CC1)c1ccc(Br)cc1 | -8.5* | 1.2*
CC(C)(C)c1ccc(NC(=O)N2CCN(c3ccc([N+](=O)[O-])cn3)CC2)cc1 | i | 0.18
COCCCN=Cc1c(-c2ccccc2)[nH]n(-c2nc3ccccc3s2)c1=O | i | -1
O=C(COC(=O)C1CCCCC1)Nc1cc([N+](=O)[O-])ccc1F | i | 0.45
COc1cccc(C(=O)Nc2c3c(nn2-c2ccc([N+](=O)[O-])cc2)CS(=O)(=O)C3)c1 | i | -2.1
CC(=O)Nc1ccc(S(=O)(=O)NC2(C(F)(F)F)C(=O)Nc3c2c(=O)n(C)c(=O)n3C)cc1 (configuration not stated) | i | -1.1

Bioassay records as filed in PubChem.

An excerpt (hit frequency here may not be typical).
